# supercomplex z: modulators of mitochondrial supercomplex assembly, cell-based, luminescence, Hoechst nuclei count (AID 1645838); z-score at 11 µM unless noted; Cells, luminescence/Hoechst cell count ratio, supercomplex reporter; hits give high values; hit rate 5% among 2,000;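 active means mean z-score of two plates above 1.96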;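 further: control cybrid cells; higher means more mitochondrial supercomplex formation; U2OS-based cells read after two days; 0 = mean of sample wells on the plate; doses worked out from stocks diluted about 900-fold with the highest of each compound shown; many of its hits are not listed in these tables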
# supercomplex z cell count: recorded beside supercomplex z, whose call it bears; cell count; measured here: cell number, Hoechst nuclei count;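 nuclei per well as mean of two plates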
# An asterisk follows results filed as active; i = inactive; · = no result given. An excerpt. The share of hits here may be higher or lower than overall.
supercomplex z | supercomplex z cell count | compound
-0.42 | 5334 | CC(C)(Cc1nc(-c2ccc(O)cn2)no1)C(=O)NC1=C(C(=O)O)CCCC1
-0.92 | 6565 | Oc1ccc(C2CNCCc3c2cc(O)c(O)c3Cl)cc1 (stereo not given)
0.84 | 2940 | CS(=O)(=O)c1ccc(-c2cnc(N)c(C(=O)Nc3ccccc3)n2)cc1
-0.29 | 4628 | CC(C(=O)O)c1ccc2c(c1)CC(=O)c1ccccc1S2 (stereo not given)
-1.7 | 5865 | CNCCCN1c2ccccc2CCc2ccccc21
0.34 | 5552 | c1ccc(Nc2nc3c(s2)CCCc2[nH]ncc2-3)nc1
-0.36 | 3870 | CCOc1cc2ncc(C#N)c(Nc3ccc(OCc4ccccn4)c(Cl)c3)c2cc1NC(=O)C=CCN(C)C
-0.23 | 4192 | CC(C)(O)CC(=O)NCCn1ccc2ncnc(Nc3ccc(Oc4cccc(C(F)(F)F)c4)c(Cl)c3)c21
-0.4 | 4229 | CC1(C)CNc2cc(NC(=O)c3cccnc3NCc3ccncc3)ccc21
0.29 | 5334 | CC(C)COc1ccc(CNC(=O)N(Cc2ccc(F)cc2)C2CCN(C)CC2)cc1
-0.45 | 5339 | CCCC(NC(C)C(=O)N1C(C(=O)O)C[C@H]2CCCC[C@@H]21)C(=O)OCC (stereo not given in full)
-0.75 | 6156 | CN(C)CCC=C1c2ccccc2COc2ccc(CC(=O)O)cc21
-0.17 | 6317 | CCCN1CCN(c2ccc(C(=O)NC3(C(=O)NCC#N)CCCCC3)cc2)CC1
-0.068 | 4508 | COc1nccc(-c2c(-c3ccc(F)cc3)ncn2C2CCC(O)CC2)n1 (stereo not given)
i | · | COc1ccc(-c2cc3nccn3c(Nc3ncccc3C(N)=O)n2)cc1OC
i | · | CNC(=O)c1ccc(Nc2ncc(C(F)(F)F)c(NCc3nccnc3N(C)S(C)(=O)=O)n2)cc1
-0.26 | 4890 | O=C(CN1C(=O)C2(CCCC2)NCC1c1cc(F)cc(F)c1)Nc1ccc2c(c1)C[C@@]1(C2)C(=O)Nc2ncccc21 (stereo not given in full)
-0.41 | 5048 | C[C@@]1(c2nc3c(C(N)=O)cccc3[nH]2)CCCN1
i | · | COc1cc2ncn(-c3cc(OCc4ccccc4C(F)(F)F)c(C(N)=O)s3)c2cc1OC
i | · | COc1cccc2cc(-c3nc(C4CCC(C(=O)O)CC4)n4ncnc(N)c34)[nH]c12 (stereo not given)
-0.26 | 5555 | CC1Cc2ccccc2N1NC(=O)c1ccc(Cl)c(S(N)(=O)=O)c1 (stereo not given)
0.13 | 6150 | Cc1cn(C2CC(O)C(CO)O2)c(=O)[nH]c1=O (stereo not given)
i | · | CCC(=O)N1CCN(c2ccc(-n3c(=O)ccc4cnc5ccc(-c6cnc7ccccc7c6)cc5c43)cc2C(F)(F)F)CC1
1.5 | 2446 | COc1cc(CCc2cc(NC(=O)c3ccc(N4CC(C)NC(C)C4)cc3)n[nH]2)cc(OC)c1 (stereo not given)
1.5 | 1970 | CN1CCC(CNc2ccc3ncc(-c4cccc(OC(F)(F)F)c4)n3n2)CC1
